PKD1 kinase inh = inhibitors of human PKD1 kinase, biochemical, fluorescence polarization; PKD1 kinase fluorescence polarization assay; inhibition, %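 (about 10 µM by stock and volumes)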; 0.056% of 200,000 active; Serine/threonine-protein kinase D1 (Homo sapiens), Q15139;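 active means inhibition of 50% or more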;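 further: controls were vehicle for no effect and a reference inhibitor for full effect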
Insulin prom inh = inhibitors of insulin promoter-driven GFP, primary screen, imaging, TRM-6 cells (human fetal islet line), eGFP reporter, cell count | reporter expression induced with tamoxifen | inhibition, % at 2 µM | 0.9% of 130,000 active | AID 1273, 2008;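 active means inhibition above the mean plus 3 SD, with well images judged a real hit on visual review, cut at about 60% in these data, passing the limit was not always enough; inconclusive means inhibition over the cutoff but images rejected on review; inactive means inhibition not above the cutoff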
GALR2 ag = GALR2 receptor agonists, primary screen, cell-based; Galanin receptor type 2 (Homo sapiens), O43603; 0.48% of 140,000 active; activation, %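 (tested at 5 µM)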; GALR2-expressing cells, agonist activation read-out; AID 803, 2007;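 active means above mean plus 3 SD of all compounds, about 5% in these data, not always enough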;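 further: 0% = vehicle buffer wells and 100% = reference agonist at full effect; tested in CHO reporter cells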
Target sequence (O43603 whole entry, looked up): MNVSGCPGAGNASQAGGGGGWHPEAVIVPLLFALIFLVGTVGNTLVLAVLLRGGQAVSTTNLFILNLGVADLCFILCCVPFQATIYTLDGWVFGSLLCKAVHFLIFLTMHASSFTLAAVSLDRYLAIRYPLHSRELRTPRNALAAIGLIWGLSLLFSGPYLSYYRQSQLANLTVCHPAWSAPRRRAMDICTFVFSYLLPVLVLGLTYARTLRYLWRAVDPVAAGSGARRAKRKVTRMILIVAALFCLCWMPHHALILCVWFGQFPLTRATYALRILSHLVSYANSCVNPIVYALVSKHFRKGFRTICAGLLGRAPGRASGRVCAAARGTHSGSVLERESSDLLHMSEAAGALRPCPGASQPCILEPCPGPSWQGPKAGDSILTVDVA
HSV augment = enhancers of HSV replication in host cells, fold increase, host cell viability; HSV replication augmentation in cells; maximum fold increase; 0.005% of 220,000 active; AID 1956, 2009;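 active means peak rise of 1.5-fold or more in the series; inconclusive means self-fluorescent or not available for retest; tested in PC3 cells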;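 further: first round at 10 µM; read as green reporter fluorescence; hits show the peak of a series up to 25 µM; 1 = signal of infected wells without compound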
RGS16-Gao HTS = modulators of RGS16 binding to Galphao, primary screen, biochemical, human proteins, multiplexed bead flow cytometry; Regulator of G-protein signaling 16 (Homo sapiens) + Guanine nucleotide-binding protein …; bead-based flow cytometry RGS16-Galphao binding, fluorescence; actives lie on both sides; binding response (% of control), % at 10 µM; 0.38% of 220,000 active; AID 1441, 2008;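 active means below 25% or above 175%, edge rows of some plates excepted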;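 further: Galphao activated by GDP with aluminum fluoride before binding; 100% = wells without compound and 0% = beads without RGS; some results beyond the cut were filed as inactive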
Target sequence (O15492 whole entry, looked up): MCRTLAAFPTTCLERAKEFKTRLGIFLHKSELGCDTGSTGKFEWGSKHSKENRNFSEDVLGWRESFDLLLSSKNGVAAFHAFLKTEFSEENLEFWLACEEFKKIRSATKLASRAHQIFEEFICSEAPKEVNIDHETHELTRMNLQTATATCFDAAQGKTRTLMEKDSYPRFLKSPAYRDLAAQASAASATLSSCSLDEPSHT
Target sequence (P09471 whole entry, looked up): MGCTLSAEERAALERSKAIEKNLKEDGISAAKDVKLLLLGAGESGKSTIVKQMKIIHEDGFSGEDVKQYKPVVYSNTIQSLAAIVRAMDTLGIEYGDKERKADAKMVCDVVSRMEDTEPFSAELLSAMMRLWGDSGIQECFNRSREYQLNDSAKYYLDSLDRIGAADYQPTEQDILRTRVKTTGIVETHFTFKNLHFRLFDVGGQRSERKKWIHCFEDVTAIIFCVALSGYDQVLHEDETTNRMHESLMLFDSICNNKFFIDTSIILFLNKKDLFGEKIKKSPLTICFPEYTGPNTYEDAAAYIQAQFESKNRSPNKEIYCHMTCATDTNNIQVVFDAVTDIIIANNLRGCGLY
Insulin prom inh cell count = second read-out of Insulin prom inh, no call of its own (marks repeat the call); normalized cell count, %; measured here: cell count, toxicity; reference of the scale not given here;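 cells exposed to compound for 48 h; stained nuclei by imaging scaled within each plate; lower means fewer cells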
HSV augment primary fold = further read-out of HSV augment, marked with its call; fold increase; compound at 10 µM; measured here: primary screen fold increase 10 uM; tested in PC3 cells;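 GFP signal in the first replicate; 1 = infected wells without compound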
* = called active by the depositor; i = inactive; ? = inconclusive; nt = no result given; [ ] = dose if it differs, or a comment.

The opening four entries, to show the layout:
SMILES | PKD1 kinase inh | Insulin prom inh | Insulin prom inh cell count | GALR2 ag | HSV augment | HSV augment primary fold | RGS16-Gao HTS
O=c1c2c(-c3cccs3)csc2ncn1/N=C/c1ccc(OC(F)F)cc1 | 4 | -29 | 147 | -2.9 | i | 0.96 | 99
CCn1nc(NC(=O)C2CCCO2)c2cc3cc(C)ccc3nc21 (configuration not stated) | 1 | 11 | 107 | nt | i | 1 | 103
Fc1ccccc1/C=N/n1cc(-c2ccccc2)[nH]c1=S | nt | nt | nt | nt | i | 0.84 | 93
CCOC(=O)/C=c1\s/c(=C\c2ccc(C#N)cc2)c(=O)n1CC(=O)Nc1cccc(C)c1C | -5 | nt | nt | nt | i | 0.8 | 103

All compounds of this part (from the top)
SMILES | PKD1 kinase inh | Insulin prom inh | Insulin prom inh cell count | GALR2 ag | HSV augment | HSV augment primary fold | RGS16-Gao HTS
O=c1c2c(-c3cccs3)csc2ncn1/N=C/c1ccc(OC(F)F)cc1 | 4 | -29 | 147 | -2.9 | i | 0.96 | 99
CCn1nc(NC(=O)C2CCCO2)c2cc3cc(C)ccc3nc21 (configuration not stated) | 1 | 11 | 107 | nt | i | 1 | 103
Fc1ccccc1/C=N/n1cc(-c2ccccc2)[nH]c1=S | nt | nt | nt | nt | i | 0.84 | 93
CCOC(=O)/C=c1\s/c(=C\c2ccc(C#N)cc2)c(=O)n1CC(=O)Nc1cccc(C)c1C | -5 | nt | nt | nt | i | 0.8 | 103
CCOC(=O)c1nnc(-c2ccccc2)nc1NC | 16 | -7 | 97 | -1.9 | i | 1 | 68
O=C(O)c1cn(C2CC2)c2cc(N3CCN(S(=O)(=O)c4ccc5c(c4)OCCO5)CC3)c(F)cc2c1=O | 3 | nt | nt | nt | i | 0.87 | 97
CC(C)C1N(C(=O)CN2CCCC2)CCN1S(=O)(=O)c1ccccc1 (configuration not stated) | -3 | nt | nt | -3.1 | i | 0.95 | 104
CSC1=NC2(CCCCC2)CC12C=CC(=O)C=C2 | -3 | nt | nt | nt | i | 0.77 | 104
O=C(NC(=S)N1CCN(c2ccc(O)cc2)CC1)c1cccs1 | nt | nt | nt | nt | i | 0.88 | 99
COc1cc(OC)cc(C(=O)NCC(=O)OCC(=O)Nc2ccc3c(c2)OCO3)c1 | -3 | nt | nt | nt | i | 0.93 | 97
O=C(Nc1ccncc1)c1ccc(S(=O)(=O)Nc2ccccc2)cc1 | -8 | 0 | 190 | nt | i | 1 | 106
O=C(CN1CCCCC1)Nc1nnc(-c2ccccc2)s1 | -8 | -183 | 68 | 0.1 | i | 0.97 | 148
CCOC(=O)c1oc2cccc(OCC(O)CNC(C)C)c2c1C (configuration not stated) | 2 | 0 | 83 | -0.6 | nt | nt | 231*[activator]
Cc1cccc(-n2cc(-c3ccccc3)c3c(N4CCOCC4)ncnc32)c1 | -4 | -19 | 73 | nt | i | 1 | 94
Cc1ccc(C(=O)NCC(c2ccc(F)cc2)N2CCOCC2)cc1 (configuration not stated) | nt | nt | nt | nt | i | 0.91 | 106
COc1cccc(Cn2cccc(NC(=O)Nc3cccc(C#N)c3)c2=O)c1 | nt | nt | nt | nt | i | 1 | 102
CC1CCN(S(=O)(=O)c2ccc3c(c2)oc(=O)n3CC(=O)N2CCc3ccccc3C2)CC1 | 0 | nt | nt | -1.3 | i | 1 | 102
COc1ccccc1N1C(=O)C2C3C=CC(C3)C2(C)C1=O (configuration not stated) | -18 | -15 | 130 | -0.6 | i | 1 | 100
CCOc1ccc(C(=O)NC2CCN(C(=O)Nc3ccccc3OC)CC2)cc1 | -11 | -32 | 48 | 0.3 | i | 0.89 | 103
CCCc1cc(N2CCCC(C(=O)Nc3cc(Cl)ccc3OC)C2)n2ncnc2n1 (configuration not stated) | 3 | 15 | 123 | -1.1 | nt | nt | nt
O=C(N/N=C\c1ccc(Oc2ccccc2)cc1)c1csnn1 | -7 | 36 | 123 | nt | i | 0.96 | 110
Cc1ccc2occ(C(=O)c3ccco3)c(=O)c2c1 | 3 | 10 | 79 | -0.1 | i | 1.1 | 101
Cc1ccc(N2C(=O)CSC2c2cccnc2)cc1F (configuration not stated) | -10 | 36 | 185 | 0.5 | i | 0.96 | 98
CC(C)CCN1CCN(Cc2ccoc2)CC1CCO (configuration not stated) | nt | nt | nt | nt | i | 1 | 108
CCc1cc(C=NC2CCCCC2)c(O)s1 | 8 | nt | nt | -0.9 | nt | nt | -39*

Next part.
SMILES | PKD1 kinase inh | Insulin prom inh | Insulin prom inh cell count | GALR2 ag | HSV augment | HSV augment primary fold | RGS16-Gao HTS
CN1C(=O)CC(Sc2ncccc2C(=O)O)C1=O (configuration not stated) | -3 | -34 | 228 | -2.1 | i | 0.93 | 103
COc1ccccc1C(=O)NNC(=O)c1ccc(Cl)cc1 | -6 | nt | nt | nt | i | 0.98 | 98
CCOC(=O)c1nnn(-c2nonc2N)c1COc1ccccc1 | 7 | nt | nt | -1.6 | i | 0.85 | 105
COc1cc(CC(=O)NCc2ccc3c(c2)OCO3)cc(OC)c1OC | -7 | -34 | 161 | -4.3 | i | 0.75 | 101
CCNS(=O)(=O)c1ccc(-c2ccc(-n3cnnn3)cc2)cc1 | 2 | 25 | 98 | nt | i | 0.95 | 99
O=c1[nH]c2ccc(Cl)cc2c(O)c1Cc1ccccc1 | -10 | 73* | 102* | nt | i | 1 | 102
COc1cc(/C=C(\C#N)C(=O)NC2CCCCC2C)ccc1OS(=O)(=O)c1ccc(C)cc1 (configuration not stated) | 2 | nt | nt | -0.3 | i | 0.69 | 111
C(=C/c1nccc2c1[nH]c1ccccc12)/c1ccc2c(c1)OCO2 | 10 | -226 | 78 | nt | i | 0.92 | 103
O=C(COC(=O)CCc1nc2ccccc2n1-c1ccccc1)Nc1cccc(Cl)c1 | -2 | nt | nt | -0.2 | i | 1 | 80
COc1ccc(CCC(=O)Nc2nc3c(s2)CN(C)CC3)cc1OC | -1 | -14 | 99 | -0.6 | i | 0.88 | 125
Cc1cccc(N(C(=O)c2csnn2)C(C(=O)NC(C)(C)C)c2ccncc2)c1 (configuration not stated) | -6 | -7 | 137 | -1.0 | i | 1 | 112
Cn1c(N)c(C(=O)COC(=O)C2CCCC2)c(=O)n(C)c1=O | 3 | nt | nt | nt | i | 0.9 | 99
COc1ccc(CCNC(=O)CCS(=O)(=O)c2ccc3c(c2)CCN3C(C)=O)cc1OC | -15 | -75 | 63 | -2.5 | nt | nt | 96
O=C(Nc1nc(-c2ccccn2)cs1)c1ccc(S(=O)(=O)N2CCCCC2)cc1 | nt | nt | nt | nt | i | 0.85 | 99
O=C(NCCN1CCOCC1)c1csc2c1CCCCC2 | 5 | nt | nt | 0.0 | i | 0.88 | 133
O=C(Nc1nc(-c2ccc(S(=O)(=O)N3CCOCC3)cc2)cs1)c1ccccc1 | -2 | 18 | 148 | -0.5 | nt | nt | 94
O=C(Cc1ccc(Cl)cc1)N1CCN(C(=O)c2ccco2)CC1 | -4 | -5 | 200 | -2.2 | i | 0.98 | 105
COC(=O)C1C(O)=C(C(C)=N)C(=O)CC1(C)C (configuration not stated) | -1 | -87 | 73 | 0.1 | i | 0.82 | 118
CSCCC(NC(=O)OCc1ccccc1)C(=O)O (configuration not stated) | 7 | 48 | 142 | -2.5 | i | 1.1 | 89
COC(OC)c1nc(SCC(=O)Nc2cccc(Cl)c2)ncc1C(=O)O | nt | nt | nt | nt | i | 0.99 | 110
CCCCN(C)Cc1c(C)[nH]c2c(Cl)cccc2c1=O | -10 | 62 | 157 | -2.3 | i | 0.97 | 116
Cc1nc(N2CCOCC2)nc(OCCN2CCOCC2)c1[N+](=O)[O-] | 1 | nt | nt | -1.3 | i | 1 | 100
Cc1ccc(CC(=O)Nc2ccc(F)c([N+](=O)[O-])c2)cc1C | 7 | 42 | 166 | nt | i | 1 | 99
C=C(C)C(=O)N1CC2(CC(c3cccc(NC(=O)/C=C\C=C/C)c3)=NO2)C[C@H]1C(N)=O (some centres not stated) | nt | nt | nt | nt | i | 0.92 | 94
Cc1nc(C)c(NC(=O)N2CCc3ccccc32)cc1NC(=O)N1CCc2ccccc21 | 4 | 18 | 132 | -0.3 | i | 1.1 | 103

Molecules from the list above that have a COOH group, in the order listed:
SMILES | PKD1 kinase inh | Insulin prom inh | Insulin prom inh cell count | GALR2 ag | HSV augment | HSV augment primary fold | RGS16-Gao HTS
O=C(O)c1cn(C2CC2)c2cc(N3CCN(S(=O)(=O)c4ccc5c(c4)OCCO5)CC3)c(F)cc2c1=O | 3 | nt | nt | nt | i | 0.87 | 97
CN1C(=O)CC(Sc2ncccc2C(=O)O)C1=O (configuration not stated) | -3 | -34 | 228 | -2.1 | i | 0.93 | 103
CSCCC(NC(=O)OCc1ccccc1)C(=O)O (configuration not stated) | 7 | 48 | 142 | -2.5 | i | 1.1 | 89
COC(OC)c1nc(SCC(=O)Nc2cccc(Cl)c2)ncc1C(=O)O | nt | nt | nt | nt | i | 0.99 | 110

Further results follow.
SMILES | PKD1 kinase inh | Insulin prom inh | Insulin prom inh cell count | GALR2 ag | HSV augment | HSV augment primary fold | RGS16-Gao HTS
CCOc1ccc(C(=O)CC(=O)C(=O)NCCc2ccc(OC)c(OC)c2)cc1 | 6 | 41 | 120 | -0.5 | i | 0.96 | 110
CNc1oc(Cc2cccc3ccccc23)nc1C#N | -10 | 59 | 74 | -0.7 | i | 1 | 96
CCNC(=O)/C(C#N)=C/c1c(N2CCOCC2)nc2ccccn2c1=O | -7 | -6 | 147 | 1.5 | i | 0.95 | 95
CC1CN(C2CC(C)(C)NC(C)(C)C2)CCC1=O (configuration not stated) | -8 | -27 | 169 | 0.0 | i | 1.1 | 93
Cc1ccc(S(=O)(=O)N2CCN(c3nc(C)nc4sc(C)c(C)c34)CC2)cc1 | 1 | 11 | 84 | -0.9 | i | 0.99 | 100
COc1cccc(C(=O)NCC(=O)OCC(=O)c2ccccc2)c1 | -16 | 0 | 133 | 0.4 | i | 1.1 | 55
COc1cc(NC(=O)CCCOc2ccc(Cl)cc2Cl)c(C(=O)O)cc1OC | nt | nt | nt | nt | i | 0.93 | 96
COc1cccc(-c2nc(CS(=O)(=O)CC(=O)NC3CCCc4ccccc43)c(C)o2)c1 (configuration not stated) | 3 | nt | nt | -5.1 | i | 0.73 | 95
Cc1ccc(SCC(=O)Nc2ccc(-c3nnc(-c4ccco4)o3)cc2)cc1 | 5 | 27 | 129 | -2.5 | ? | nt | 96
O=c1[nH]c2ccccc2nc1/C=C(\O)c1cccs1 | -5 | nt | nt | nt | ? | nt | 104
CC(C)(C)C(=O)COc1ccccc1[N+](=O)[O-] | -7 | -7 | 117 | nt | i | 1.1 | 99
Cc1csc(NC(=O)CSc2nsc(SCC(=O)Nc3nc(C)cs3)c2C#N)n1 | -5 | nt | nt | 0.1 | i | 0.93 | 101
Cc1ccc(C2C(C(=O)c3ccco3)=C(O)C(=O)N2c2nnc(C)s2)cc1 (configuration not stated) | 12 | 21 | 86 | -3.2 | i | 0.95 | 93
CC(=O)N1CCc2cc(S(=O)(=O)NC(CC(C)C)C(=O)N3CCc4ccccc4C3)ccc21 (configuration not stated) | -10 | nt | nt | -1.8 | i | 0.89 | 100
CN(C)/N=C/c1c(O)ccc2ccccc12 | -8 | 24 | 134 | -2.2 | i | 0.94 | 97
COc1ccc(Nc2nc(-c3ccccc3)nc3ccccc23)cc1S(=O)(=O)N1CCOCC1 | nt | nt | nt | nt | i | 0.64 | 95
COc1ccc(N2C(=O)CCC(C(=O)O)C2c2ccc(F)cc2)cc1 (configuration not stated) | 0 | nt | nt | -2.2 | i | 1 | 98
CCN(C(=O)CN1CCN(c2cccc(Cl)c2)CC1)c1c(N)n(Cc2ccccc2)c(=O)[nH]c1=O | -2 | nt | nt | nt | i | 1 | 98
O=C(c1cccnc1)N1CCN(C(=O)c2ccco2)CC1 | 1 | -174 | 136 | -3.1 | i | 1 | 103
C=CCN(c1ccc(Cl)cc1)S(=O)(=O)c1cccc(C(=O)O)c1 | -8 | nt | nt | nt | i | 0.98 | 105
CCOC(=O)Cc1csc(SCn2nnc3ccccc3c2=O)n1 | -9 | nt | nt | -1.9 | i | 0.99 | 62
COc1ccccc1OCCn1c(=O)sc2ccccc21 | -5 | 43 | 116 | -2.4 | i | 0.83 | 97
